CBX7 AlphaScr: inhibitors of human CBX7 binding to H3K27me3 peptide | AlphaScreen His6-CBX7 / biotin-H3K27me3 peptide binding; active compounds read low | normalised signal (fraction of DMSO) (no concentration beside the values) | O95931 | AID 1224903 | 66,000 compounds, 1.1% hits; in the data active means normalised signal below about 0.5;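 further: 100 nL library stock added to about 20 µL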
Target sequence (O95931 whole entry, looked up): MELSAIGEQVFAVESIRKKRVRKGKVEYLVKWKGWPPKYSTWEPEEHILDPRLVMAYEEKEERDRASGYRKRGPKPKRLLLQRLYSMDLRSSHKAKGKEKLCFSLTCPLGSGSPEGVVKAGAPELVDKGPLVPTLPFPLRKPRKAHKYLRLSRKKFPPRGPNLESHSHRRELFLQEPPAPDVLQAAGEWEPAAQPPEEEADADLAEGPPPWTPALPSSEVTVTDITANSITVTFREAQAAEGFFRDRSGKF
CBX7 AlphaScr z-score: further read-out of CBX7 AlphaScr, marked with its call; z-score; measured here: z-score of CBX7 signal; some inactives read as strong as hits; reference of the scale not given here;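 same signal on another scale; lower means less binding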
Starred values were filed as active, the others as inactive; & = joins results of further samples. An excerpt; the hit share may differ from the screen's.

SMILES	CBX7 AlphaScr	CBX7 AlphaScr z-score
CNC(=O)c1ccc(NC(=O)COc2ccc(-c3nn(C)c(=O)c4ccccc34)cc2)cc1	1.02	0.976
O=C(CNc1ccccc1-c1nc2ccccc2[nH]c1=O)NC1CCCCCCC1	1.01	0.272
CC(C)Cc1nc(S(=O)(=O)c2ccccc2)c(N2CCOCC2)o1	1.2	0.696
COC(=O)c1c[nH]n2c(NC3CCCCC3)c(-c3ccc(Cl)cc3)nc12	0.708	-0.328
Cn1c(SCC(=O)Nc2ccc(F)cc2F)nnc1-c1cccnc1	1.11	1.01
COc1cccc(-c2cc(C(F)(F)F)nc(N3CCC(C)CC3)n2)c1	1.8	32.3
Cc1ccc(CSc2nc3ccncc3n2Cc2nc(-c3ccccc3C)oc2C)cc1	0.964	-0.506
CCn1c(C(=O)O)c(CC(=O)N(C)c2cc(C)ccc2C)c2ccccc21	1.18	4.4
O=C1CN(C(=O)C2CCCC2)C(c2ccccc2)c2cc(Cl)ccc2N1 (stereo not drawn)	1.04	0.172
CCCN(CCC)CCNC(=O)C1CCN(c2nc3ccc(OC)cc3s2)CC1	1.43	4.75
O=C(Nc1ccc(Cl)c(-c2nc3ccccc3s2)c1)c1ccc(F)cc1	1.06	2.51
COc1ccc(CNC2CC(=O)N(c3cccc(Cl)c3)C2=O)cc1 (stereo not drawn)	1.01	0.317
COc1ccc(-c2nc(-c3ccccc3)no2)cc1	0.867	-0.468
CCc1ccc(OCCCNS(=O)(=O)c2ccc(C3CNC(=O)C3)cc2)cc1 (stereo not drawn)	1.1	1.01
C=CCN(c1ccccc1)S(=O)(=O)c1ccc2[nH]cc(C(=O)NCc3cccnc3)c(=O)c2c1	0.979	-0.324
Cc1ccc(S(=O)(=O)c2cn(Cc3cccc(F)c3)c3ccc(F)cc3c2=O)cc1	0.994	-0.213
Cc1ccc(C(=O)Nc2nnc(CCS(=O)(=O)c3ccc(Br)cc3)s2)cc1	1.01	0.479
CCc1noc(C)c1C(=O)Nc1nnc(C2CCCCC2)s1	0.956	-1.42
CCOc1cc(C2Nc3ccccc3NC3=C2C(=O)CCC3)ccc1O (stereo not drawn)	1.08	2.29
COc1cc(-c2nc(N3CCCCC3C)c3ccccc3n2)cc(OC)c1OC (stereo not drawn)	1.2	3.93
Cc1ccccc1NC(=O)c1ccc(F)c(S(=O)(=O)N2CCCCCC2)c1	0.985	-0.163
Cc1c(Cl)cccc1NC(=O)c1ccc2c(c1)N(Cc1ccc(F)cc1)C(=O)CS2=O (stereo not drawn)	1.04	0.499
CCc1ccc(C(=O)CC2(O)C(=O)N(C(C)C)c3ccccc32)cc1 (stereo not drawn)	0.903	-0.109
CCC(=O)N1c2ccc(S(=O)(=O)N3CCN(Cc4ccc5c(c4)OCO5)CC3)cc2CC1C (stereo not drawn)	0.955	-1.36
COC(=O)CC1Oc2ccc(Cl)cc2NC1=O (stereo not drawn)	0.963	-0.885
COc1ccc(C)cc1NC(=O)C1(c2ccccc2)CCOCC1	1.08	3.53
CCCCSc1nnc(-c2ccccc2NC(=O)CC)c(=O)[nH]1	1.06	1.67
COc1ccc(Nc2c(-c3ccc(Cl)cc3)nc3cnccn23)cc1OC	0.947	-2.11
CC1=C(C(=O)Nc2cc(C)ccn2)C(c2cccc(Cl)c2)C2=C(CCCC2=O)N1 (stereo not drawn)	1.02	0.179
CC(C)CCN(C)C1CCN(C(=O)Nc2ccc(Cl)c(Cl)c2)CC1	1.16	0.159
COc1ccc(NC2c3ccccc3C(=O)N2c2ccccn2)cc1 (stereo not drawn)	0.921	-2.59
Cc1ccc2c(c1)c(Sc1ccccc1)c(CC(=O)NCCO)n2C	0.947	-1.47
COc1ccccc1CNC(=O)CN(c1ccc(C)cc1)S(=O)(=O)c1c(C)nn(C)c1C	1.17	1.21
COc1cc2c(cc1OC)C(c1ccccc1OC(C)C)CC(=O)N2 (stereo not drawn)	0.971	-0.281
Cc1ccc(CNC(=O)C2CCN(c3nnc(-n4cccc4)s3)CC2)cc1	1.07	0.265
CCN1CCN(C2CC(=O)N(c3ccc(-c4nc5ccc(C)cc5s4)cc3)C2=O)CC1 (stereo not drawn)	0.873	-1.38
Cc1cccc(Cc2c(C)nc3c(C(=O)NCc4ccccc4)cnn3c2C)c1	0.736	-7.27
CCc1ccc(N(CC)c2nnc(Cc3cccnc3)c3ccccc23)cc1	1.03	0.648
CC1CCc2c(C(=O)NCCCSC3CCCCC3)csc2C1 (stereo not drawn)	1.11	4.22
CC1CCCN(S(=O)(=O)c2ccc3[nH]c(=O)cc(C(=O)NC4CCCC4)c3c2)C1 (stereo not drawn)	0.991	-0.101
CC1CCC(NC(=O)C2c3cccn3CC(=O)N2CCC2=CCCCC2)CC1 (stereo not drawn)	1.04	0.851
CC1CCC(NC(=O)C2CCCN(S(=O)(=O)c3cnc[nH]3)C2)CC1 (stereo not drawn)	1	-0.00671
CC12CC(c3ccccc3O1)C(c1nnc(-c3cccc(F)c3)o1)C(=O)N2 (stereo not drawn)	1.07	1.47
CCCC(=O)Nc1nnc(-c2cccc(OCC)c2)s1	0.959	-0.352
O=C(Nc1cc(C(F)(F)F)ccc1Cl)c1cc(C2CC2)on1	1.01	0.214
O=C(Nc1cc2c(cc1C(=O)c1ccc(Br)cc1)OCCO2)c1ccccc1	1.1	1.99
COc1ccc2oc(=O)c(-c3nnc(Nc4ccccc4F)s3)cc2c1	0.935	-1.28
CCC(C)Nc1cc(C)nc2c(-c3ccccc3OC)c(C)nn12 (stereo not drawn)	0.822	-1.92
Cc1c(C(=O)NCc2ccc(F)cc2)sc2ncn(CC(=O)N3CCCC(C)C3)c(=O)c12 (stereo not drawn)	1.01	0.0907
O=C(O)Cn1c(-c2ccccc2)nc2ccccc21	0.994	-0.177
COc1ccccc1-n1c(C)nc2cc(C(=O)NCc3ccccc3Cl)ccc21	0.885	-2.8
Cn1c(=O)c(=O)n(C)c2cc(S(=O)(=O)N3CCCC3C(=O)NCc3cccnc3)ccc21 (stereo not drawn)	1.33	3.06
COc1ccccc1Cn1c(=O)[nH]c2ncccc2c1=O	1.02	0.459
O=C1CN(C(=O)C2CCCCC2)C(c2ccc(F)cc2)c2cc(Cl)ccc2N1 (stereo not drawn)	0.926	-0.311
CCOC(=O)c1cnc2ccc(OCC)cc2c1N1CCN(C)CC1	1.17	1.68
Cc1ccccc1-c1nc(CS(=O)(=O)CC(=O)N2CCOCC2)c(C)o1	0.99	-0.258
O=C(NCCc1ccccc1)c1cc(-c2ccc3c(c2)OCO3)on1	1.04	0.483
Cc1ccc2cc(CCNC(=O)c3ccccc3)c(=O)[nH]c2c1	1.06	2.47
CCCN(C(=O)CCc1nc(-c2ccc(C)cc2)no1)c1ccc(CC)cc1	0.874	-1.93
Cc1ccc(-n2nc(C)c3c(C)c(CCC(=O)Nc4ccc(CN5CCOCC5)cc4)c(C)nc32)cc1	1.03	0.6
Additional results follow.
SMILES	CBX7 AlphaScr	CBX7 AlphaScr z-score
c1ccc(-c2nnc3ccc(NCCN4CCOCC4)nn23)cc1	1.19	4.35
CC(CCc1ccccc1)NC(=O)CN1CCN(Cc2ccc(F)cc2)C1=O (stereo not drawn)	1.02	0.475
CCN(CC)S(=O)(=O)c1ccc(-c2csc(Nc3ccc(Br)cc3)n2)cc1	0.962	-0.716
CCCC(=O)NCCc1nc2ccccc2n1CC(C)C	1.07	0.962
Cc1ccc(-c2nnc(Nc3ccc(S(=O)(=O)Nc4nccs4)cc3)c3ccccc23)cc1	0.363*	-0.867*
CCCCCCCNC(=O)CCn1nc(-c2ccccc2)ccc1=O	1.03	0.929
Cc1ccc(NCc2nc3ccccc3n2CCOc2ccccc2C)cc1	0.708	-4.47
COC(CNC(=O)C1CCC(=O)N1Cc1ccc(F)cc1)OC (stereo not drawn)	1.01	0.412
Cc1ccc(-c2ccccc2)n1-c1ccc(C(=O)O)cc1	1.06	0.876
Cc1cc(C)cc(Nc2nc(-c3cc(C)ccc3C)cs2)c1	0.661	-5.86
Cc1cc(N2CCN(c3ccccn3)CC2)n2nc(C)c(-c3ccccc3)c2n1	1.08	2.65
CCCc1cc(C(=O)Nc2cnn(Cc3ccc(F)cc3)c2)no1	0.999	-0.0281
CCn1c(CCCNC(=O)c2ccc(F)cc2)nc2ccccc21	0.965	-0.888
CCC(C(=O)Nc1ccccc1OC)n1c(SCc2ccc(F)cc2)nc2ccncc21 (stereo not drawn)	0.98	-0.928
O=C(CSCc1cnn(-c2ccccc2)c1-n1cccc1)NCc1ccccc1Cl	1.01	0.618
O=C(c1cccc(C#Cc2ccccc2)c1)N1CCN(c2cccc(C(F)(F)F)c2)CC1	0.94	-0.659
COc1ccccc1Nc1cc(C(=O)NCCCN(C)c2ccccc2)c2ccccc2n1	1.04	0.693
CC(c1ccccc1)N1C(=O)c2ccccc2C1C(=O)NC1CCCC1 (stereo not drawn)	0.998	-0.0603
O=C(Cn1nc(Cc2ccncc2)c2ccccc2c1=O)Nc1ccc(F)cc1	1.06	1.7
CC(C)(C)c1ccc(C(=O)Nc2ncc(Cc3ccccc3Cl)s2)cc1	1.05	1.02
COc1ccc(-c2nc(CS(=O)(=O)CC(=O)Nc3ccccc3Cl)c(C)o2)cc1	0.916	-0.175
COc1ccc(OC)c(Nc2cc(C(=O)NCCN3CCOCC3)c3ccccc3n2)c1	0.97	-0.475
CCN(CCCNC(=O)c1ccc2nc(N3CCC(C)CC3)sc2c1)Cc1ccccc1	1.28	2.58
Cc1ccc(C2=NN(CCC(=O)NC3CCCCC3)C(=O)CC2)cc1	0.999	-0.00898
CCN(CC)S(=O)(=O)c1ccc2c(c1)N(CC(=O)Nc1ccc(C)cc1)C(=O)CO2	0.996	-0.0607
CC1CCc2nc3ccc(S(=O)(=O)N4CCC(C(=O)NC5CCCC5)CC4)cc3c(C(=O)O)c2C1 (stereo not drawn)	1.02	0.587
COc1ccc2cc(CCNC(=O)c3cccc(C)c3)c(=O)[nH]c2c1	1.14	0.885
O=C(Nc1nccs1)C1CC(=O)N(c2ccc(Cl)cc2)C1 (stereo not drawn)	0.864	-2.09
CCOc1ccc(NC(=O)Cn2cnc3ccccc3c2=O)cc1	1.01	0.449
Cc1nc2ccccn2c1-c1csc(Nc2cccc(C(=O)O)c2)n1	0.959&0.909	-1.03&-0.124
Cc1ccc(-c2nnc(N3CCN(S(C)(=O)=O)CC3)c3ccccc23)cc1	1.07	0.667
CCc1ccccc1Nc1cc(C(=O)NCCC(C)C)c2ccccc2n1	1.25	4.91
CN(C)CCNC(=O)c1ccc2c(c1)N(Cc1ccccc1)CCS2	0.974	-0.0347
CC(=O)N1CCC(N(C(=O)Nc2ccc(C)c(C)c2)C2CCCC2)CC1	0.991	-0.463
Cc1cccc(-c2noc(C(C)Oc3ccc(Cl)cc3Cl)n2)c1 (stereo not drawn)	1.97	10.7
Cc1cccc2c1-c1sc(C(=O)Nc3cnc4ccccc4c3)cc1CO2	1.06	1.89
CC(=O)Nc1c2c(nn1-c1ccccc1C)CSC2	1.03	0.0306
FC(F)(F)c1cc(-c2cccs2)nc(N2CCc3ccccc3C2)n1	1.42	20
O=C(NC1CCCC1)C(c1ccc(Cl)cc1)N1CCN(C2CCCCC2)CC1 (stereo not drawn)	1.01	0.076
Fc1ccc(-c2csc3ncnc(N4CCN(CCOc5ccccc5)CC4)c23)cc1	0.975	-0.866

15 consecutive records from above, for reference:
SMILES	CBX7 AlphaScr	CBX7 AlphaScr z-score
CCN(CC)S(=O)(=O)c1ccc2c(c1)N(CC(=O)Nc1ccc(C)cc1)C(=O)CO2	0.996	-0.0607
CC1CCc2nc3ccc(S(=O)(=O)N4CCC(C(=O)NC5CCCC5)CC4)cc3c(C(=O)O)c2C1 (stereo not drawn)	1.02	0.587
COc1ccc2cc(CCNC(=O)c3cccc(C)c3)c(=O)[nH]c2c1	1.14	0.885
O=C(Nc1nccs1)C1CC(=O)N(c2ccc(Cl)cc2)C1 (stereo not drawn)	0.864	-2.09
CCOc1ccc(NC(=O)Cn2cnc3ccccc3c2=O)cc1	1.01	0.449
Cc1nc2ccccn2c1-c1csc(Nc2cccc(C(=O)O)c2)n1	0.959&0.909	-1.03&-0.124
Cc1ccc(-c2nnc(N3CCN(S(C)(=O)=O)CC3)c3ccccc23)cc1	1.07	0.667
CCc1ccccc1Nc1cc(C(=O)NCCC(C)C)c2ccccc2n1	1.25	4.91
CN(C)CCNC(=O)c1ccc2c(c1)N(Cc1ccccc1)CCS2	0.974	-0.0347
CC(=O)N1CCC(N(C(=O)Nc2ccc(C)c(C)c2)C2CCCC2)CC1	0.991	-0.463
Cc1cccc(-c2noc(C(C)Oc3ccc(Cl)cc3Cl)n2)c1 (stereo not drawn)	1.97	10.7
Cc1cccc2c1-c1sc(C(=O)Nc3cnc4ccccc4c3)cc1CO2	1.06	1.89
CC(=O)Nc1c2c(nn1-c1ccccc1C)CSC2	1.03	0.0306
FC(F)(F)c1cc(-c2cccs2)nc(N2CCc3ccccc3C2)n1	1.42	20
O=C(NC1CCCC1)C(c1ccc(Cl)cc1)N1CCN(C2CCCCC2)CC1 (stereo not drawn)	1.01	0.076

The list continues:
SMILES	CBX7 AlphaScr	CBX7 AlphaScr z-score
Cc1ccc2nc(-c3ccc(S(=O)(=O)N4CCOCC4)cc3)cn2c1	1.04	0.146
COc1ccc(NC(=O)c2c(C)c(-c3ccc(C)cc3)nc3ccccc23)cc1	1.42	1.48
O=C(CN1CCN(Cc2ccccc2F)C1=O)NC1CCCC1	1.07	1.43
COc1ccc(CCNC(=O)c2cc(=O)[nH]c3ccc(S(=O)(=O)N4CCCCC4)cc23)cc1OC	0.91	-1.06
CN1C(=O)C(O)(CC(=O)c2cccc(Br)c2)c2ccccc21 (stereo not drawn)	1.02	0.405
Oc1ccc(-c2nc(-c3ccccc3)c(-c3ccc(Br)cc3)[nH]2)cc1	0.457*	-0.541*
CCOc1ccc(NC(=O)Cn2cc(S(=O)(=O)c3ccccc3)c(=O)c3cc(C)ccc32)cc1	0.83	-2.44
Cc1nnc(Nc2ccc3c(c2)nc(C)n3Cc2ccccc2)c2ccccc12	0.82	-0.504
CCN(CC)c1cc(C)c2cc(NC(=O)c3cccnc3)ccc2n1	0.924	-3.57

Screens from PubChem.
